Compound activity (PubChem BioAssay)
D2 PAM: Beta-Arrestin HTS for Positive Allosteric Modulators of the Human D2 Dopamine Receptor: Potentiators | D(2) dopamine receptor (Homo sapiens), P14416 | DiscoveRx D2 beta-arrestin cells, luminescence, 90 min; 100% = 57 uM dopamine signal | potentiation, % (no concentration beside the values) | 360,000 tested, 0.23% active | AID 624464, 2012; active = potentiation of 50% or more; inconclusive = 30% to 50%; inactive = 30% or less;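 note: compound concentration not given in the record; tested on top of an EC20 dose of dopamine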
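D2 cells co-treated with compound plus 50 nM dopamine (EC20) for 90 min at 37 deg C to detect potentiation. Beta-arrestin recruitment was read as enzyme-fragment luminescence after 1 h at ambient temperature. Full response was set by 57 uM dopamine.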
D2 ag: Beta-Arrestin HTS for Positive Allosteric Modulators of the Human D2 Dopamine Receptor: Agonists; activation, % (no concentration beside the values); 360,000 tested, 0.084% active; DiscoveRx PathHunter D2 beta-arrestin, luminescence, 90 min; 100% = 57 uM dopamine signal; D(2) dopamine receptor (Homo sapiens), P14416; in the data active = activation above about 40%; inconclusive = about 15% to 40%; inactive = below about 15%; note: compound concentration not given in the record; the text of the record calls up to 30% inactive
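Agonist mode: compounds alone added to overnight-plated D2 PathHunter cells for 90 min at 37 C, with 57 uM final dopamine (EC100) defining full response. Beta-arrestin recruitment detected by chemiluminescent reagent, read after 1 h at ambient temperature.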
gsp agonist: qHTS for Agonist of gsp, the Etiologic Mutation Responsible for Fibrous Dysplasia/McCune-Albright Syndrome: qHTS | gsp mutant cells, cAMP HTRF, 30 min; control for the full effect not named in the record | Potency, µM (highest dose often 76.9 µM), for the others: at the top dose activation (cAMP increase), hits mostly activators | 340,000 tested, 0.13% active; active = well fitted activation curve with a large enough effect; inconclusive = small, poorly fitted or top-dose-only effect, or another doubt; inactive = no such curve, though single readings can be large or run the other way; cell line not stated here;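 note: phosphodiesterase inhibitor Ro 20-1724 added with compounds to block cAMP breakdown; potency is the fitted concentration of half-maximal effect; nearly all actives have a fitted effect of over 60% in size; about a fifth of the inactives were tested at one dose only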
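Cells stably selected in G418 were plated at 2000/well, grown 16-24 hr, then given compounds in DMSO with the PDE inhibitor […] (300 uM solution added) for 30 min at 37C; cAMP was read by HTRF.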
Six1-Eya2 inh: qHTS Assay for Inhibitors of the Six1/Eya2 Interaction. AlphaScreen GST-Six1/His-Eya2 binding, biochemical; hits give low values; control for the full effect not named in the record. activity change, % (test concentration not listed). 360,000 tested, 0.56% active. AID 651725, 2012; in the data active = activity change below about -65%; inconclusive = about -30% to -65%; inactive = above about -30%; note: % is set by controls: 0 for no effect and ±100 for the full control effect; compound concentration not given in the record
Target sequence (O00167 whole entry, looked up): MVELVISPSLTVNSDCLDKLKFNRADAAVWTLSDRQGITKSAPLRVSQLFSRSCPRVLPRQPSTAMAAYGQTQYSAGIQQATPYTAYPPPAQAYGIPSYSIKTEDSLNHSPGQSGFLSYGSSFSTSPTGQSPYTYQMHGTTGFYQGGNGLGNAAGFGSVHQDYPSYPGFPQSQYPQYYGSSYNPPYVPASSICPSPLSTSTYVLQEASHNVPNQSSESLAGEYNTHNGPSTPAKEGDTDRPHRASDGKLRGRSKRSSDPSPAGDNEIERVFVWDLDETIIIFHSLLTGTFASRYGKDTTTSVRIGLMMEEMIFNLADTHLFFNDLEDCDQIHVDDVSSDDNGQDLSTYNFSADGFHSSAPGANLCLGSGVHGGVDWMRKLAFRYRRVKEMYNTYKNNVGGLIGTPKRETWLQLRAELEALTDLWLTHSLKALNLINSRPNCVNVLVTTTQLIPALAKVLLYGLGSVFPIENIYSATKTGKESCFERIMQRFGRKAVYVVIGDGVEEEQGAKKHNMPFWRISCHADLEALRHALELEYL
Target sequence (Q15475 whole entry, looked up): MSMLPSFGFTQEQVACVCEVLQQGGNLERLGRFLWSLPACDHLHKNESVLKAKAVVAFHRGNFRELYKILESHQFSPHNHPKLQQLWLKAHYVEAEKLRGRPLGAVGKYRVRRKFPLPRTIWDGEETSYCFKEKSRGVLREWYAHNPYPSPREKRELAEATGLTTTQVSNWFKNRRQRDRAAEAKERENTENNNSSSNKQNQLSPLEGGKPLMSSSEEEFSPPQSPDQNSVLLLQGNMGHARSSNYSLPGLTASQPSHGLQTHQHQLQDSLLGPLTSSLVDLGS
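GST-Six1 + His-Eya2 (5X stock: 250/500 nM); Tris pH 8.0, 300 mM NaCl, 0.05% BSA, 0.02% Tween 20; GSH donor/Ni acceptor beads; 1 h 37 °C dark; AlphaScreen readout.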
CtBP-E1A inh: qHTS Assay for Inhibitors of the CtBP/E1A Interaction | AlphaScreen GST-E1A/His-CtBP binding, 1536-well; hits give low values; control for the full effect not named in the record | 340,000 tested, 0.49% active | activity change, % (test concentration not listed) | AID 651724, 2012 | CtBP / adenovirus E1A interaction (AlphaScreen); in the data active means activity change below about -65%; inconclusive means about -30% to -65%; inactive means above about -30%; note: % is set by controls: 0 for no effect and ±100 for the full control effect; compound concentration not given in the record
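Homogeneous bead-based format: GST-tagged E1A captured on glutathione donor beads, His-tagged CtBP on nickel acceptor beads; compounds precede bead addition by 2 h at 37 °C.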
gsp antagonist: qHTS for Antagonists of gsp, the Etiologic Mutation Responsible for Fibrous Dysplasia/McCune-Albright Syndrome: qHTS; gsp-mutant cells, cAMP HTRF, 30 min; control for the full effect not named in the record; Potency, µM (titrated, usually from 76.9 µM), without a hit: top-dose activity change, negative = inhibition, usual class: inhibitors; 340,000 tested, 0.4% active; active = falling curve of any shape with a large fitted effect; inconclusive = falling curve, mostly with a smaller effect; inactive = flat or rising curve; cell line not stated here;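 note: intracellular cAMP measured with PDE inhibitor Ro 20-1724 present during compound exposure; potency is the fitted concentration of half-maximal effect; % is set by controls: 0 for no effect and ±100 for the full control effect; nearly all actives have a fitted effect of over 65% in size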
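Measurement of cellular cAMP by homogeneous time-resolved fluorescence following a 30 min compound exposure at 37C. The PDE inhibitor […] was present throughout; the assay buffer was DPBS with 0.05% BSA and 0.005% Tween 20.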
* = called active by the depositor; ? = inconclusive; . = not tested or not shown; [ ] = dose if it differs, or a comment.

no.	Molecule	D2 PAM	D2 ag	gsp agonist	Six1-Eya2 inh	CtBP-E1A inh	gsp antagonist
1	Cc1nn(CC(=O)NC(=O)NC2CCCC(C)C2C)c(=O)c(C#N)c1C (stereo not drawn)	-17	-1.2	24%[15.4 µM]	-1	3	-4%
2	COc1ccccc1Nc1nn2c(=O)c3ccc(C(=O)N4CCCC(C)C4)cc3nc2s1 (stereo not drawn)	-11	-5.8	10%[15.4 µM]	-14	0	?
3	C=CCNC(=O)CN1C(=O)CSc2ccc(S(=O)(=O)N3CCOCC3)cc21	7	0.9	?	-2	-1	.
4	COc1ccccc1NC(=O)/C(C#N)=C/c1cc([N+](=O)[O-])ccc1N1CCCC1	16	5.5	0%	4	10	-11%
5	CC(C)Oc1ccc(C(=O)Nc2nc3ccccc3[nH]2)cc1	0	-3.1	-5%[15.4 µM]	-1	1	-12%
6	O=C(COC(=O)CCNS(=O)(=O)c1ccccc1)NC1CC1	-6	-3.7	16%	10	.	8%
7	COc1ccc(Cn2nnc3c(=O)[nH]c(C4CCCN(C(=O)c5ccccc5)C4)nc32)cc1 (stereo not drawn)	-5	7.6	7%	10	-9	-5%
8	COc1ccc(Cl)cc1NS(=O)(=O)c1cccc(C(=O)NC2CCC(O)CC2)c1 (stereo not drawn)	8	-0.4	9%	0	-3	0%
9	CC1(C)CC(NC(=O)CCc2nnc(CCCCc3ccccc3)o2)CCO1 (stereo not drawn)	-2	-3.7	-14%	1	7	1%
10	NS(=O)(=O)c1cccc(NC(=O)COC(=O)Cn2cc(C(F)(F)F)ccc2=O)c1	7	0.0	5%	1	.	9%
11	CC(=O)Nc1ccc(NC(=O)CCCN2C(=O)C(c3ccccc3)Oc3cccnc32)cc1 (stereo not drawn)	-4	-0.6	-47%[inhibitor]	2	11	.
12	Nc1nnc(SC2CCCC2)s1	-4	1.1	2%	-3	6	-15%
13	CCOC(=O)[C@H]1[C@H]2COc3ccccc3[C@@H]2N2C(=O)c3cc(F)ccc3NC(=O)[C@@]12C	-53	-1.2	.	4	3	2%
14	CC1CCCN(C(=O)CCCNC(=O)c2ccc(Cl)cc2)C1 (stereo not drawn)	-5	-6.0	22%	4	5	11%
15	CC(O)(c1ccccc1)c1nc(-c2ccc(S(C)(=O)=O)cc2)cs1 (stereo not drawn)	-1	4.0	.	1	1	.
16	CCCn1c(=O)c2ccccc2n2c(SCCOc3ccc(C)cc3)nnc12	12	1.7	-38%[inhibitor]	3	12	-14%
17	CC1c2cc3c(cc2CCN1C(=O)c1cccc(Cl)c1)OCCCO3 (stereo not drawn)	-9	1.4	-5%	-2	.	2%
18	COc1ccc(S(=O)(=O)Cc2ccc(C(=O)NC3CCCC3)o2)cc1	-2	-1.8	?	-2	2	-6%
19	N#CCCn1nc(-c2ccc(Br)cc2)cc1Nc1ccccc1NC(=O)C(F)(F)F	-3	1.2	19%[15.4 µM]	-9	3	32µM*
20	COc1ccc(S(=O)(=O)CC(=O)Nc2nnc(C(F)(F)F)s2)cc1	-4	-3.9	8%	-11	0	-7%
21	O=C(Nc1nc2ccc(S(=O)(=O)N3CCOCC3)cc2s1)c1cccs1	-2	6.2	6%	6	1	-27%
22	O=C(CCN1C(=O)COc2ccccc21)NCCN1CCN(c2ccccc2F)CC1	-27	2.0	-36%[inhibitor]	7	8	-4%
23	Cc1ccc(-n2c(Cn3nc(C(F)F)cc3C(F)F)n[nH]c2=S)cc1	7	0.1	-26%	4	10	7%
24	COc1ccc(C(NC(=O)C2CCN(CCOc3ccc(Cl)cc3Cl)CC2)c2cccs2)cc1 (stereo not drawn)	-18	70*	.	-8	-5	.
25	Cc1ccc(CC(=O)NCC(C)C)cc1	-5	-2.2	11%	7	12	6%
26	N/C(=N\OC(=O)COc1ccccc1)c1ccccn1	-4	-1.3	-5%	3	.	1%
27	CN(C(=O)c1cc(S(=O)(=O)N2CCc3ccccc32)cn1C)C1CCCCC1	-2	-2.3	-19%	0	-12	-11%
28	O=C(COC(=O)CN1C(=O)C2CC=CCC2C1=O)Nc1cccc([N+](=O)[O-])c1 (stereo not drawn)	-9	-0.3	27%	-1	4	.
29	CC(OC(=O)c1cc2c(ccc3ccccc32)oc1=O)c1nc2ccccc2s1 (stereo not drawn)	8	-0.9	-42%[inhibitor]	1	-10	-11%
30	CCCCNC(=O)c1ccc2nc(CC)c(N(C)Cc3cccs3)n2c1	-13	-2.3	.	-5	-1	.
31	COc1cc(C2(c3ccc(O)c(OC)c3)C(=O)Nc3c(Br)cc(Br)cc32)ccc1O	-16	-1.2	-5%	-2	.	-2%
32	Cc1cccc(/C=N/NC(=O)c2cc(-c3cccnc3)nc3ccccc23)c1	-3	-2.1	21%[15.4 µM]	6	12	-15%
33	CC(C)CCN1CCN(Cc2cccs2)CC1CCO (stereo not drawn)	-18	0.6	2%	3	6	7%
34	O=C(c1ccco1)N1CCN(CCOc2ccccc2)CC1	-4	?	-2%[15.4 µM]	6	12	8%
35	COCCCNC(=O)CN(CCc1ccccc1)S(=O)(=O)c1ccc(OC)cc1	-6	8.1	8%[15.4 µM]	-4	.	5%
36	Cc1cccc(N2CCN(C(=O)c3ccoc3C)CC2)c1C	-33	-0.8	13%	1	1	-1%
37	O=C(NCCCN1CCOCC1)c1ccc(CSc2ccc(Cl)cc2)cc1	-27	-4.2	-9%[15.4 µM]	0	0	-15%
38	CCCCOC(=O)C1=C(C)Nc2nnnn2C1c1ccc(OC)c(OC)c1OC (stereo not drawn)	-11	1.3	5%	-2	1	-5%
39	CCC(C)(C)NC(=O)CN(C(=O)CNS(=O)(=O)c1ccccc1)c1ccccc1	1	1.2	0%	8	2	-4%
40	COc1ccc(C2C(C(=O)N3CCN(C)CC3)c3ccccc3C(=O)N2C2CCCCC2)cc1 (stereo not drawn)	-24	-4.9	19%	-2	0	-2%
41	O=C1CSC(c2cccc([N+](=O)[O-])c2)N1CCN1CCCCC1 (stereo not drawn)	-14	-2.1	1%	-1	.	5%
42	Cc1ccc(CNC(=O)c2ccc(NC(=O)C3=CSCCO3)cc2)cc1	-4	2.0	-12%	-5	.	11%
43	CCn1c(SCC(=O)Nc2ccccc2)nnc1-c1cccs1	-18	-5.6	14%	0	-10	0%
44	COc1ccnc(CN(C)C(=O)C2CCC(=O)N(Cc3cccc(C(F)(F)F)c3)C2)c1 (stereo not drawn)	-2	-6.8	-6%	14	0	2%
45	Nc1n[nH]c(C2CC2)c1N=Nc1ccc(Cl)cc1	-24	-3.9	-16%	-9	.	-4%

Arranged by value in gsp agonist (descending): some entries from above
no.	Molecule	D2 PAM	D2 ag	gsp agonist	Six1-Eya2 inh	CtBP-E1A inh	gsp antagonist
38	CCCCOC(=O)C1=C(C)Nc2nnnn2C1c1ccc(OC)c(OC)c1OC (stereo not drawn)	-11	1.3	5%	-2	1	-5%
41	O=C1CSC(c2cccc([N+](=O)[O-])c2)N1CCN1CCCCC1 (stereo not drawn)	-14	-2.1	1%	-1	.	5%
39	CCC(C)(C)NC(=O)CN(C(=O)CNS(=O)(=O)c1ccccc1)c1ccccc1	1	1.2	0%	8	2	-4%

(further entries)
no.	Molecule	D2 PAM	D2 ag	gsp agonist	Six1-Eya2 inh	CtBP-E1A inh	gsp antagonist
46	Cc1cccc(C)c1OCC(=O)NCC1CCCO1 (stereo not drawn)	-3	-0.5	0%[15.4 µM]	-13	14	17%
47	Cc1ccc(NC(=S)Nc2cccc3cnccc23)c(C)c1	1	0.6	14%[15.4 µM]	6	4	8%
48	O=C(NCCN1CCOCC1)c1ccc(CSCc2cccc(Cl)c2)o1	-12	-1.6	-36%[inhibitor]	31	4	-1%
49	O=C(c1ccco1)N1CCN(C(c2ccccc2Cl)c2nnnn2Cc2ccco2)CC1 (stereo not drawn)	3	-2.1	-12%	0	2	-15%
50	CN(C)c1ccc(C(=O)N2CCN(c3cc(C(F)(F)F)nc4ccccc34)CC2)cc1	1	-1.6	-5%[15.4 µM]	-18	-12	?
51	COc1cccc(OC)c1OCCCCN1CCC(Cc2ccccc2)CC1	-22	0.4	8%[15.4 µM]	-3	-1	7%
52	COc1ccc(S(=O)(=O)N2CCC(C(=O)NCCC(=O)NCc3ccccn3)CC2)cc1	-9	-4.1	-2%	8	1	.
53	Cc1nn(-c2ccccc2)c(N)c1Sc1cccc([N+](=O)[O-])c1	-11	-4.9	?	-15	.	?
54	CC1=C(C(=O)Nc2ccc(C)cc2)C(c2ccco2)NC(=O)N1 (stereo not drawn)	-11	-0.8	7%	-3	3	3%
55	O=C(NC1CCCCCCC1)c1ccccc1-c1ccccc1	9	-0.5	-18%	14	-4	-6%
56	Cc1nnc(NC(=O)C2COc3ccccc3O2)s1 (stereo not drawn)	-4	-0.5	-14%	-5	2	1%
57	COCc1cccc(-c2csc(C(C)(NC(C)=O)c3ccccc3)n2)c1 (stereo not drawn)	-6	-1.6	.	31	-17	.
58	O=C(Nc1ccncc1)C1CCN(S(=O)(=O)c2cccc(C(F)(F)F)c2)CC1	-3	12	13%	6	-1	-2%
59	Cc1cccc(NC(=O)COc2ccc(/C=N\n3cnnc3)cc2)c1	1	-1.4	27%	7	3	7%
60	CCc1nnc(NS(=O)(=O)c2ccc(N/C=C\C(=O)c3ccc(F)cc3)cc2)s1	-20	-5.2	-40%[inhibitor]	-7	.	?
61	COc1ccc(C2NC(c3ccc(OC)cc3)C([N+](=O)[O-])C(C)(C)C2[N+](=O)[O-])cc1 (stereo not drawn)	-2	-6.4	-4%	-13	0	0%
62	CCCC(=O)NC(=S)Nc1sc2c(c1C(N)=O)CCC2	-7	-6.5	-3%	-12	-14	-18%
63	O=[N+]([O-])c1ccc(COc2ccccc2/C=N/O)cc1	-13	-1.0	-28%	-9	-17	-12%

Results in sequence from above.
gsp antagonist, entries 46–53: 17%, 8%, -1%, -15%, ?, 7%, ., ?
Six1-Eya2 inh, entries 46–53: -13, 6, 31, 0, -18, -3, 8, -15
